Source: PubChem BioAssay (National Center for Advancing Translational Sciences (NCATS))
RE007 growth inh: less growth of the S. pombe RE007 Vpr strain; S. pombe RE007 Vpr strain, BacTiter-Glo ATP luminescence, 24 h; control for the full effect not named in the record; Potency, µM (doses to about 92.2 µM), inactives show at the highest dose activity change, negative = less growth; actives 0.21% (n = 360,000); active = well fitted falling curve with a large enough effect; inconclusive = small, poorly fitted or top-dose-only effect; inactive = no such curve, though single readings can be large or run the other way;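 also: % is scaled to controls: 0 for no effect and ±100 for the full control effect; nearly all actives have a fitted effect of over 50% in size; the assay follows cell death caused by Vpr and the record does not say whether a fall means rescue or toxicity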
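Fission yeast strain RE007, carrying one chromosomally integrated HIV-1 vpr copy, was seeded at OD 0.01 in PMG+AL medium with 23 nL pinned compound. After 24 h at 30 °C and 99% humidity, viability was read by BacTiter-Glo luminescence.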
2A StopGo: FMDV 2A StopGo reporter, luciferase signal; actives 1.2% (n = 410,000); human cells with a luciferase reporter of 2A StopGo recoding; control for the full effect not named in the record; AID 1159524; Potency, µM (top dose mostly 57.9 µM), inactives show top-dose signal change, negative = less light; active = well fitted falling curve with a large enough effect; inconclusive = small, poorly fitted or top-dose-only effect; inactive = no such curve, though single readings can be large or run the other way; tested in HEK293T cells; also: % is scaled to controls: 0 for no effect and ±100 for the full control effect; nearly all actives have a fitted effect of over 45% in size; luciferase light after 4 h
SARS PLpro yeast: blocks SARS-CoV papain-like protease in a yeast assay. actives 0.19% (n = 330,000). AID 485353. S. cerevisiae expressing SARS-CoV PLpro, growth rescue; control for the full effect not named in the record. Potency, µM (doses to about 32.9 µM), inactives show at the top dose activity, positive = growth rescue; active means well fitted rising curve with a large enough effect; inconclusive means small, poorly fitted or top-dose-only effect; inactive means no such curve, though single readings can be large or run the other way; also: 0% is about no effect; nearly all actives have a fitted effect of over 55% in size; growth read by luminescence after 48 h
NS1 inh: inhibitors of influenza NS1 protein function; S. cerevisiae slowed by influenza A NS1, growth recovery by OD600; Potency, µM (titrated, usually from 46.1 µM), inactives show at the top dose activity, positive = more growth; actives 0.4% (n = 270,000); active means well fitted rising curve with a large enough effect; inconclusive means small, poorly fitted or top-dose-only effect; inactive means no such curve, though single readings can be large or run the other way; also: nearly all actives have a fitted effect of over 50% in size
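A cell-based growth assay was used: compounds that relieve NS1-induced slow growth of budding yeast raise OD600. Assay medium was yeast nitrogen base with ammonium sulphate and -URA supplement, pH 6.0, with 2% galactose.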
Marburg entry inh: Marburg virus entry inhibition; Marburg virus pseudotyped entry inhibition, cell reporter; control for the full effect not named in the record; about a third of the inactives were read at about 46 µM; Potency, µM (series often up to 37.8 µM), without a hit: at the highest dose activity change, negative = inhibition, most hits filed as inhibitors; actives 1.8% (n = 300,000); AID 540276; active = well fitted inhibition curve with a large enough effect; inconclusive = small, poorly fitted or top-dose-only effect, or effect the other way; inactive = flat fitted curve, though single readings scatter; tested in HEK293 cells; about a fifth of its hits are not listed in these tables; also: % is scaled to controls: 0 for no effect and ±100 for the full control effect; luciferase read-out
Cruzain inh Det: cruzain (T. cruzi) inhibition with detergent. Potency, µM, for the others: max response, negative = inhibition, hits mostly inhibitors. actives 0.43% (n = 200,000). P25779. purified cruzain, Z-FR-AMC fluorescence, 0.01% Triton;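 also: plate controls were neutral wells for no effect and buffer without enzyme for full effect; nearly all actives have a fitted effect of over 40% in size; top concentration of the series not given in the record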
Target sequence (P25779 123-467 limits assumed): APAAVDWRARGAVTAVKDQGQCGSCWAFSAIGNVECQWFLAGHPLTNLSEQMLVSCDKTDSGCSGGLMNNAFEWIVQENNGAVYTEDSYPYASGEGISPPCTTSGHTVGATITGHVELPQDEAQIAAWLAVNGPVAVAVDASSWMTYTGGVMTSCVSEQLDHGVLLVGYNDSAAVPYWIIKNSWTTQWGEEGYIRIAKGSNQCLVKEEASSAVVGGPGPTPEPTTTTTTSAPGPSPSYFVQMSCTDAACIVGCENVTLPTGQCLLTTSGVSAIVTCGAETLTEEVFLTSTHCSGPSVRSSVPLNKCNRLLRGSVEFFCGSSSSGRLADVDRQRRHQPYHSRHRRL
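Cysteine protease activity tested under reducing, mildly acidic conditions (100 mM sodium acetate pH 5.5, 5 mM DTT) plus 0.01% Triton X-100. Cruzain 1.5 nM; substrate Z-FR-AMC 2 uM; 15 min compound preincubation at room temperature.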
LASV entry inh: blocks Lassa virus binding to or entry into cells; Lassa virus pseudotype entry inhibition, cell reporter; control for the full effect not named in the record; Potency, µM (top dose mostly 37.9 µM), for the others: at the top dose activity change, negative = inhibition, actives largely listed as inhibitors; actives 1.2% (n = 300,000); active means well fitted inhibition curve with a large enough effect; inconclusive means small, poorly fitted or top-dose-only effect, or effect the other way; inactive means flat fitted curve, though single readings scatter; tested in HEK293 cells; also: % is scaled to controls: 0 for no effect and ±100 for the full control effect; nearly all actives have a fitted effect of over 50% in size; luciferase read-out
Cruzain noTriton: blocks cruzain activity in detergent-free assay; P25779; purified cruzain, Z-FR-AMC fluorescence, no detergent; Potency, µM, for inactives: max response, negative = inhibition, hits mostly inhibitors; actives 2.3% (n = 200,000);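 also: plate controls were enzyme without inhibitor for no effect and buffer without enzyme for full effect; nearly all actives have a fitted effect of over 40% in size; top concentration of the series not given in the record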
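Purified cruzain at 1.5 nM, pre-incubated 15 min with compound at room temperature in 100 mM sodium acetate pH 5.5, 5 mM DTT, 0.00005% Triton X-100. Reaction started with 2 uM Z-FR-AMC; AMC fluorescence increase over 60 s gives rate.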
Active calls of the source: *; u = inconclusive; x = no result given; & = joins results of further samples; [ ] = another dose, or the depositor's remark. Unless noted, calls follow the shape of the dose curve; as a rule, active = well fitted curve in the direction sought with a large enough effect; inconclusive = small, poorly fitted or top-dose-only effect, or another doubt; inactive = no such curve, though single readings can be large; an effect the other way counts as inactive or inconclusive. Potency is read from the fitted curve at half-maximal effect. Compounds as they come; overall some 4.7% were active at least once.

#	mol	RE007 growth inh	2A StopGo	SARS PLpro yeast	NS1 inh
1	Cc1ccc(N2CCN(C(=O)c3cn(C)c4ccc(S(=O)(=O)N5CCC(C)CC5)cc4c3=O)CC2C)cc1 (stereo unspecified)	x	0%	x	x
2	CSc1cccc(NC(=O)c2cnccn2)c1	-12%	22%	-5%	-8%
3	CCCC(=O)N(c1ccc2oc(=O)sc2c1)S(=O)(=O)c1ccccc1	-2%	0%	0%	4%
4	CCOC(=O)c1cnc2c(ccc3ccccc32)c1NCCCN(C)C	u	16%	-7%	-5%
5	CCSCc1nnc(SCC(=O)Nc2cccc(C(C)=O)c2)n1C	2%	-16%	1%	-3%
6	CCOc1ccc(NC(=O)CN(C)C(=O)c2ccc3nc(CC)c(CC)nc3c2)cc1OCC	7%	-8%	1%	x
7	O=C(NCCN1C(=O)S/C(=C\c2ccccc2F)C1=O)C1CC(=O)N(Cc2ccccc2)C1 (stereo unspecified)	13%	-30%	1%	x
8	O=C(CN1CCN(S(=O)(=O)c2ccc(Br)cc2)CC1)N/N=C/c1ccc(Br)s1	26%	u	-9%	x
9	CCn1c(=N)n(CCO)c2ccccc21	-18%	-6%	3%	2%
10	CC(OC(=O)CCc1c[nH]c2ccccc12)C(=O)c1ccccc1 (stereo unspecified)	13%	-12%	-1%	-4%
11	Cn1c(N)c(C(=O)COC(=O)CSc2ccc3ccccc3c2)c(=O)n(C)c1=O	-1%	-18%	-12%	-18%
12	CSc1ccc(C=O)cc1	-21%	-18%	3%	x
13	COc1ccc(NC(=O)c2nnn(CC(=O)Nc3cc(C)cc(C)c3)c2N)c(OC)c1	x	20%	x	x
14	O=C(COc1ccccc1)NCC(=O)N/N=C/c1ccccc1	-17%	-7%	0%	5%
15	CCOC(=O)C1(NC(=O)C2(NC(=O)CN3C(=O)c4ccccc4C3=O)CCCC2)CCCC1	-21%	-7%	x	x

#	Marburg entry inh	Cruzain inh Det	LASV entry inh	Cruzain noTriton
1	-7%[46.1 µM]	1.7%	-2%[46.1 µM]	9%
2	u	0.0%	-17%	2%
3	2%	-6.8%	-12%	15%
4	u	x	u	x
5	u	x	7%	x
6	-8%	x	-9%	x
7	-17%	x	-8%	x
8	u	x	u	x
9	-1%	4.9%	-12%	6%
10	5%	x	-12%	x
11	20%	-6.7%	-7%	u
12	x	2.7%	x	-1%
13	-1%[46.1 µM]	4.3%	u	-9%
14	3%	-2.3%	-5%	0%
15	u	x	-14%	x

The list continues.
#	mol	RE007 growth inh	2A StopGo	SARS PLpro yeast	NS1 inh
16	COCc1cc(C)nc(Nc2ccccc2C)c1C#N	-4%	-12%	x	u
17	CC(O)C(NC=C1C(=O)OC(C)(C)OC1=O)C(=O)O (stereo unspecified)	8%	3%	0%	x
18	O=C(O)c1ccccc1Nc1ccnc(C(F)(F)F)c1	-4%	4%	9%	-1%
19	CC(C)(Oc1ccc(Cl)cc1)C(=O)NCC(c1cccs1)N1CCOCC1 (stereo unspecified)	-24%	u	-2%	x
20	Nc1nc2n(n1)C(=O)CC(c1ccccc1)N2 (stereo unspecified)	8%	-8%	1%	x
21	Cc1ccccc1-c1nc(CSc2nc3c(c(=O)[nH]2)CCC3)c(C)o1	9%	-14%	18%	-35%
22	COc1ccc(CCNC(=O)COC(=O)/C=C/c2ccc3c(c2)OCO3)cc1OC	2%	-14%	-6%	x
23	O=C(CCCNS(=O)(=O)c1cccc2nsnc12)NC1CCCCC1	16%	-16%	-1%	u
24	CCOC(=O)Cc1nn(Cc2ccccc2)c(=O)c2ccccc12	12%	-23%	-1%	-6%
25	COc1ccc(-n2c(SCC3OCCO3)nc3c(sc(=S)n3-c3ccccc3)c2=O)cc1OC	3%	-15%	-1%	x
26	Cc1ccc(N2C(=O)c3n[nH]c(C)c3C2c2ccccc2Cl)cc1 (stereo unspecified)	x	-15%	x	x
27	Cc1ccc(N2CCN(/N=C/c3cccs3)CC2)cc1	-2%	25%	-1%	-10%
28	CCc1cnc2c(c1SCC(=O)NCc1ccccc1)c(=O)n(C)c(=O)n2C	x	-16%	x	x
29	COc1c(C(=O)N2CCCC2)ccc2ccccc12	-3%	8%	-1%	u
30	CCOC(=O)C1(O)CSc2nc3sc(C(=O)O)c(C)c3c(=O)n21 (stereo unspecified)	9%	18%	-3%	-11%

#	Marburg entry inh	Cruzain inh Det	LASV entry inh	Cruzain noTriton
16	13%	3.0%	-18%	-4%
17	u	x	11%	x
18	x	x	x	x
19	u	x	-10%	x
20	-7%	x	4%	x
21	2%	0.1%	-4%	-9%
22	39%	x	1%	x
23	-2%	1.1%	4%	13%
24	-28%[46.1 µM]	x	-10%	x
25	u	x	-19%[46.1 µM]	x
26	4%[46.1 µM]	3.6%	-20%[46.1 µM]	-30%
27	-16%	2.0%	16%	u
28	x	-0.1%	-12%[46.1 µM]	-2%
29	u	-1.1%	-15%	10%
30	2%	-1.0%	25%	-9%

The list goes on.
#	mol	RE007 growth inh	2A StopGo	SARS PLpro yeast	NS1 inh
31	O=C(Nc1nnc(-c2ccccc2SCc2ccccc2F)s1)Nc1ccccc1F	-7%	1%	0%	2%
32	CC(C)[C@H](NC(=O)c1ccccc1)C(=O)N1CCc2ccccc21	13%	11%	20%	-1%
33	Cc1nc(-c2cccs2)ccc1C(=O)O	-2%	-4%	-1%	x
34	Cc1cc2c(C)cc(=O)[nH]c2cc1NC(=O)CCl	14%	u	0%	6%
35	CCc1cc(C(=O)OC)c(NC(=O)c2cc(Br)cs2)s1	-8%	-27%	x	-1%
36	CN(Cc1cccc(Cl)c1Cl)C(=O)c1cc(S(=O)(=O)N2CCOCC2)ccc1F	8%	-19%	-19%	x
37	O=C(COC(=O)c1ccc(Cl)nc1)NNC(=O)c1ccc(Cl)cc1	5%	-5%	0%	x
38	O=C1c2cccc3cccc(c23)C(=O)N1CC1CCN(CC(O)COCc2ccc3c(c2)OCO3)CC1 (stereo unspecified)	3%	-29%	6%	-3%
39	Cc1cc(C)c2ccc(NN)nc2c1O	25%	-21%	7%	-1%
40	CCc1nc(SCC(=O)Nc2cccc3ccccc23)[nH]c(=O)c1C	29%	43%[activator]	4%	10%

#	Marburg entry inh	Cruzain inh Det	LASV entry inh	Cruzain noTriton
31	u	1.7%	1%	3.2µM*
32	7%[46.1 µM]	-0.3%	1%[46.1 µM]	-22%
33	5%[46.1 µM]	x	1%[46.1 µM]	x
34	-1%	x	x	x
35	11%	-8.8%	-11%	-18%
36	u	x	u	x
37	22%[46.1 µM]	x	0%	x
38	u	-5.3%	u	-10%
39	-5%&-5%	3.7%	7%	-11%
40	u	x	7%[46.1 µM]	x

Another view of some results above.
#28 CCc1cnc2c(c1SCC(=O)NCc1ccccc1)c(=O)n(C)c(=O)n2C
#29 COc1c(C(=O)N2CCCC2)ccc2ccccc12
#30 CCOC(=O)C1(O)CSc2nc3sc(C(=O)O)c(C)c3c(=O)n21 (stereo unspecified)
#31 O=C(Nc1nnc(-c2ccccc2SCc2ccccc2F)s1)Nc1ccccc1F
#32 CC(C)[C@H](NC(=O)c1ccccc1)C(=O)N1CCc2ccccc21
#33 Cc1nc(-c2cccs2)ccc1C(=O)O
#34 Cc1cc2c(C)cc(=O)[nH]c2cc1NC(=O)CCl
Compound	28	29	30	31	32	33	34
RE007 growth inh	x	-3%	9%	-7%	13%	-2%	14%
2A StopGo	-16%	8%	18%	1%	11%	-4%	u
SARS PLpro yeast	x	-1%	-3%	0%	20%	-1%	0%
NS1 inh	x	u	-11%	2%	-1%	x	6%
Marburg entry inh	x	u	2%	u	7%[46.1 µM]	5%[46.1 µM]	-1%
Cruzain inh Det	-0.1%	-1.1%	-1.0%	1.7%	-0.3%	x	x
LASV entry inh	-12%[46.1 µM]	-15%	25%	1%	1%[46.1 µM]	1%[46.1 µM]	x
Cruzain noTriton	-2%	10%	-9%	3.2µM*	-22%	x	x

#35 CCc1cc(C(=O)OC)c(NC(=O)c2cc(Br)cs2)s1
#36 CN(Cc1cccc(Cl)c1Cl)C(=O)c1cc(S(=O)(=O)N2CCOCC2)ccc1F
#37 O=C(COC(=O)c1ccc(Cl)nc1)NNC(=O)c1ccc(Cl)cc1
#38 O=C1c2cccc3cccc(c23)C(=O)N1CC1CCN(CC(O)COCc2ccc3c(c2)OCO3)CC1 (stereo unspecified)
#39 Cc1cc(C)c2ccc(NN)nc2c1O
#40 CCc1nc(SCC(=O)Nc2cccc3ccccc23)[nH]c(=O)c1C
Compound	35	36	37	38	39	40
RE007 growth inh	-8%	8%	5%	3%	25%	29%
2A StopGo	-27%	-19%	-5%	-29%	-21%	43%[activator]
SARS PLpro yeast	x	-19%	0%	6%	7%	4%
NS1 inh	-1%	x	x	-3%	-1%	10%
Marburg entry inh	11%	u	22%[46.1 µM]	u	-5%&-5%	u
Cruzain inh Det	-8.8%	x	x	-5.3%	3.7%	x
LASV entry inh	-11%	u	0%	u	7%	7%[46.1 µM]
Cruzain noTriton	-18%	x	x	-10%	-11%	x

Screen by screen, from the results shown.
NS1 inh for nos. 32–39, in order: -1%, x, 6%, -1%, x, x, -3%, -1%
RE007 growth inh for nos. 32–39, in order: 13%, -2%, 14%, -8%, 8%, 5%, 3%, 25%
